# Screening results from PubChem.
# TRPV1 PAM: enhances activation of the human vanilloid receptor TRPV1. Q8NER1. TRPV1-expressing cells, Fluo-8 calcium influx, capsaicin EC20 potentiation; host cell line not named in the record; control for the full effect not named in the record. potentiation, % at 8.33 µM. 320,000 compounds, 0.02% hits; active means potentiation above 80%; inconclusive means 30% to 80%; inactive means below 30%; note: 0% is about no effect
#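 Cells expressing TRPV1 were dye-loaded with Fluo-8 and read kinetically: 10 s baseline, 3 min after compound (agonist portion), then 2 min after EC20 capsaicin (allosteric enhancer portion). Calcium-bound dye fluorescence at 480/520 nm.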
# Sfp inh: Sfp phosphopantetheinyl transferase inhibition; Q9F4F7; AID 1490; Biochemical Sfp PPTase activity, qHTS; Potency, µM, for the others: max response, negative = inhibition, most hits filed as inhibitors; 310,000 compounds, 3.5% hits; active = well fitted inhibition curve with a large enough effect; inconclusive = small, poorly fitted or top-dose-only effect, or another doubt; inactive = no such curve, though single readings can be large or run the other way;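 note: the enzyme is Sfp with the accession as filed and its product quenches rhodamine fluorescence; potency is the fitted concentration of half-maximal effect; 0% = enzyme reaction without inhibitor and -100% = no enzyme wells; top concentration of the series not given in the record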
#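 Compounds were incubated with enzyme (final 15 nM) for 15 min at room temperature before substrate addition started the reaction. Fluorescence at 525 nm excitation, 598 nm emission was recorded immediately and after 30 minutes.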
# TRPML1 blocker: human mucolipin-1 channel inhibition; 390,000 compounds, 0.02% hits; activity change, negative = inhibition, % (test concentration not listed); TRPML1-inducible cells, Ca2+ dye fluorescence, FDSS; hits give low values; inhibition of EC80 agonist-evoked calcium signal; in the data active means activity change below about -50%; inconclusive means about -30% to -50%; inactive means above about -30%;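 note: stimulus is agonist 54-4 at its EC80 concentration; % is set by controls: 0 for no effect and ±100 for the full control effect; compound concentration not given in the record; the text of the record puts the active cut at -80%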
# Target sequence (Q9GZU1 whole entry, looked up): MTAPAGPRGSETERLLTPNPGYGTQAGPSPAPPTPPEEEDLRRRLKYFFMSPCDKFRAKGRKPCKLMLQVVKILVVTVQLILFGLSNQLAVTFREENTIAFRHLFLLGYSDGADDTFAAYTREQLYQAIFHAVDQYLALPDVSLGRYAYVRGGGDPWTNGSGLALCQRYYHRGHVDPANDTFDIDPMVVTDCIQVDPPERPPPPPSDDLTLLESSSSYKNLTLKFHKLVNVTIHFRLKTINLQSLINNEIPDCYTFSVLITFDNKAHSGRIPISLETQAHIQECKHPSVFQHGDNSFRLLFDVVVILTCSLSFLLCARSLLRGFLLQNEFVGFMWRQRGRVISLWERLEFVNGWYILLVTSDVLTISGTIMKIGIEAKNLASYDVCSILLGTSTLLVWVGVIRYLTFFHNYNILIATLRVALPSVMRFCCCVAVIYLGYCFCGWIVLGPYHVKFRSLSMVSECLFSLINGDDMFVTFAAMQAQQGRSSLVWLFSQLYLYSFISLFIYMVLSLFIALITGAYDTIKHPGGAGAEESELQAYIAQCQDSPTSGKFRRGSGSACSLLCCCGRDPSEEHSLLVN
#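 TRPML1-DL cells, Tet-induced overnight (~16 h, 37 °C) at 1,500 cells/well, were loaded with Ca8 no-wash dye plus quencher for 45-90 min at room temperature. Compounds were pinned during FDSS kinetic reading; agonist 54-4 at EC80 (4 uM final) then added.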
# ClpP mod: qHTS Assay for Activators of ClpP. ATP-dependent Clp protease proteolytic subunit (Bacillus subtilis (strain 168)), P80244. purified B. subtilis ClpP, FRET peptide cleavage, 20 min. Potency, µM (top dose mostly 57.5 µM), inactives show at the highest dose activity change, negative = active. 340,000 compounds, 1.9% hits. AID 651965, 2013; active = well fitted falling curve with a large enough effect; inconclusive = small, poorly fitted or top-dose-only effect; inactive = no such curve, though single readings can be large or run the other way; note: potency is the fitted concentration of half-maximal effect; the source files actives as falling curves though it sought activators and does not explain the sign; nearly all actives have a fitted effect of over 65% in size; many hits overshoot -100%
# Target sequence (P80244 whole entry, looked up): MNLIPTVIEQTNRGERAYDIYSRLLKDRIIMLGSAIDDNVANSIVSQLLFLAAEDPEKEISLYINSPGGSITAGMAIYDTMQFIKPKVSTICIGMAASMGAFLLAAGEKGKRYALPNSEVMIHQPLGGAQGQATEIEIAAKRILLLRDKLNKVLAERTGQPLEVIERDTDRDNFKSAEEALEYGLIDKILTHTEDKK
#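 Purified B. subtilis ClpP, 10 microg/mL final in Tris/HCl pH8 with KCl, BSA, glycerol and Tween-20, cleaved an Abz/nitrotyrosine-quenched decapeptide. Fluorescence (ex 320, em 430) was read at 0 and 20 min at room temperature. Delta was normalized to 5.8 microM ADEP and DMSO/no-enzyme controls.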
# Menin MLL FP FL: inhibitors of human menin-MLL interaction, wild-type MLL peptide | Fluorescence polarization, fluorescein-MLL peptide displacement from menin | FP activity change, % at 61.4 µM | 290,000 tested, under 10 active; inconclusive = falling polarisation curve, or a change in total fluorescence; inactive = total fluorescence flat and polarisation flat or rising; no compound was filed as active; the % refers to the polarisation; negative = inhibition;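 note: % of control where 0% means no effect; inhibitors lower the polarisation; unlabelled MLL peptide was the positive control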
# TRPML1 ag: human mucolipin-1 channel agonism. TRPML1-expressing cells, Ca2+ dye fluorescence, FDSS; host cell line not named in the record; reference of the full effect not given here. 410,000 compounds, 0.12% hits. activation, % (no concentration beside the values). Q9GZU1; in the data active = activation above about 50%; inconclusive = about 30% to 50%; inactive = below about 30%; note: 0% is about no effect; the text of the record puts the active cut at 80%
#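 Kinetic FDSS Ca2+ read in Tet-induced TRPML1-DL cells (ABD Ca8 dye plus quencher, 45-90 min RT loading): baseline, then compound, then 110 s agonist window; EC80 agonist 54-4 at 4uM final added afterwards for a 110 s antagonist window.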
# PINK1 modulator: modulators of PINK1 expression | PINK1 immunofluorescence, high-content cytometry, 24 h | Potency, µM (doses to about 76.6 µM), inactives show at the highest dose activation (PINK1 increase), most hits filed as activators | 410,000 compounds, 0.2% hits; active = well fitted activation curve with a large enough effect; inconclusive = small, poorly fitted or top-dose-only effect; inactive = flat fitted curve, though single readings scatter; cell line not stated here;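 note: potency is the fitted concentration of half-maximal effect; % of control where 0% means no effect; nearly all actives have a fitted effect of over 65% in size; a mitochondrial uncoupler was the plate control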
#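 Cells are seeded, rested 12 hours, then given compound at five concentrations or DMSO for 24 hours. After fixation, blocking and antibody staining, PINK1 amount and mitochondrial localization are scored; CCCP serves as control.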
# Numbers without * were called inactive; u = inconclusive; x = no result given; [ ] = another dose, or the depositor's remark.
entry	canonical_smiles	TRPV1 PAM	Sfp inh	TRPML1 blocker	ClpP mod	Menin MLL FP FL	TRPML1 ag	PINK1 modulator
1	COc1ccc(-c2nc3ccccc3n2Cc2ccc(C)cc2)cc1	-17	-28%	53	u	2.9	3.8	24%
2	COc1ccc(CCNC(=O)Nc2nc(C(N)CCc3ccccc3)cs2)cc1OC (configuration not stated)	x	x	x	1.0%	x	-0.5	1.2%
3	COCC(=O)N1CCC(Oc2ccc(C(=O)NCc3csc(C(C)C)n3)cc2)CC1	6	17%	21	0.7%	-0.1	-0.2	-1.4%
4	COc1ccccc1C(=O)Nc1ccc(OCc2cc(=O)n3cc(C)sc3n2)cc1	x	x	4	-4.9%	x	-0.6	2.6%
5	CCCCCC(=O)NNC1=NCC(Cc2ccccc2)S1 (configuration not stated)	0	0%	-3	x	1.8	-1.0	1.8%
6	CSc1nc(N)nc(SCC(=O)C(C)(C)C)c1C#N	-9	18%	-18	-0.8%	5.1	1.3	0.6%
7	Cc1ccc(-c2csc(=S)n2CC(=O)OCC(=O)NCc2ccc(F)cc2)cc1	-29	-17%	x	x	2.7	x	x
8	CC(=O)c1cccc(NC(=O)COC(=O)Cn2cnc3ccccc32)c1	x	x	-1	-2.8%	x	-0.2	-1.0%
9	O=S(=O)(c1ccccc1)N1CCC[C@@]2(CCN(Cc3cc(C(F)(F)F)cc(C(F)(F)F)c3)C2)C1	x	29%	x	x	5.3	x	1.8%
10	CC(=O)C1=C(c2ccccc2)OC(N)=C(C#N)C1c1ccccc1C (configuration not stated)	-3	-5%	14	0.6%	-3.5	2.8	3.4%

# As entered above.
# entry 3 – TRPML1 ag: -0.2
# entry 10 – TRPML1 blocker: 14
# entry 8 – PINK1 modulator: -1.0%
# entry 4 – TRPML1 blocker: 4
# entry 7 – Menin MLL FP FL: 2.7
# entry 1 – TRPML1 ag: 3.8

# Other records
entry	canonical_smiles	TRPV1 PAM	Sfp inh	TRPML1 blocker	ClpP mod	Menin MLL FP FL	TRPML1 ag	PINK1 modulator
11	N#CCS(=O)(=O)c1ccccc1	14	17%	-10	0.3%	-7.1	-0.4	-0.8%
12	O=P(c1ccccc1)(c1ccccc1)C(O)c1cccs1 (configuration not stated)	x	x	-12	0.8%	x	-0.4	1.2%
13	COc1ccccc1C(=O)Nc1cc(C)ccc1NC(=O)c1ccco1	-6	-9%	-2	-2.4%	-1.3	1.5	-1.4%
14	Cc1ccc(OCC(O)CNS(=O)(=O)c2ccccc2C(=O)N2CCCCC2)cc1 (configuration not stated)	12	11%	3	-2.9%	-0.3	1.4	-0.5%
15	CCC(=O)N1CCc2cc(S(=O)(=O)NC(Cc3ccccc3)C(=O)NCc3ccccc3)ccc21 (configuration not stated)	x	x	-9	-2.2%	x	0.3	-0.5%
16	COc1ccc(OC)c(S(=O)(=O)Oc2ccc(N)c3ccccc23)c1	x	x	18	-0.2%	x	3.1	0.9%
17	CC(C)c1cccc(C(C)C)c1OC(=O)[C@H]1OC(C(C)(C)C)=C[C@@H]1c1ccccc1	-1	x	-12	-2.7%	x	1.3	3.3%
18	CCn1c(SCC(=O)O)nnc1-c1cccnc1	-8	5%	-3	x	-4.7	0.0	-0.7%
19	Fc1cccc(Cc2c(-c3ccco3)nc3ccc(Br)cn23)c1	x	x	-17	-1.8%	x	-0.8	0.9%
20	CCc1ccc(CN2CCC(Oc3ccc(C(=O)NCc4ccccn4)cc3)CC2)o1	-7	2%	0	x	-1.5	-0.5	-0.5%

21	CC(=O)Nc1ccc(NC(=O)C2CCN(S(=O)(=O)c3cccc4nonc34)CC2)cc1
22	Cc1cc(C)cc(OCC(=O)OCC(=O)NCCC2=CCCCC2)c1
23	O=C(O)CSCc1nc2ccccc2[nH]1
24	COc1ccc(-n2cnc3ccccc3c2=O)c([N+](=O)[O-])c1
25	CC1(c2ccccc2)NC(=O)N(CC(=O)Nc2nc(-c3ccccn3)cs2)C1=O (configuration not stated)
26	Cc1ccccc1-c1noc(CCC(=O)NCC2CCCO2)n1 (configuration not stated)
27	CC(C)c1ccc2[nH]c(O)c(N=NC(=O)c3ccc(CSc4nncn4C)cc3)c2c1
28	COc1ccccc1CN(C)C(=O)c1ccc(COc2ccccc2)cc1
29	O=C(Cc1cccs1)Nc1cccc(-c2nc3ccccc3[nH]2)c1
30	COc1ccccc1CCNC(=O)C(=O)NCC1OCCN1S(=O)(=O)c1ccc(Br)cc1 (configuration not stated)
entry no. | 21 | 22 | 23 | 24 | 25 | 26 | 27 | 28 | 29 | 30
TRPV1 PAM | -2 | 2 | -8 | -5 | 1 | 12 | -1 | 13 | -1 | -13
Sfp inh | 1% | 7% | -8% | 0% | x | 9% | 8% | -1% | 9% | 4%
TRPML1 blocker | -13 | 0 | 22 | 13 | 6 | -7 | -5 | -12 | 3 | -24
ClpP mod | -0.3% | -1.2% | -2.7% | -1.0% | -5.7% | -2.5% | -3.4% | -0.8% | -22% | 1.2%
Menin MLL FP FL | 7.7 | 1.9 | 2.2 | 1.9 | x | 4.8 | 4.4 | -1.0 | -0.9 | 5.2
TRPML1 ag | 1.4 | 4.1 | 1.0 | 0.0 | -0.2 | 0.3 | 1.6 | 4.7 | 0.2 | 0.8
PINK1 modulator | x | 0.5% | 1.9% | 1.7% | -4.8% | 10%[38.3 µM] | 10% | 5.5% | 0.3% | -1.5%

# Single records (already shown).
# `O=P(c1ccccc1)(c1ccccc1)C(O)c1cccs1` (configuration not stated) reads TRPV1 PAM: x; Sfp inh: x; TRPML1 blocker: -12; ClpP mod: 0.8%; Menin MLL FP FL: x; TRPML1 ag: -0.4; PINK1 modulator: 1.2%
# `Cc1ccc(-c2csc(=S)n2CC(=O)OCC(=O)NCc2ccc(F)cc2)cc1` reads TRPV1 PAM: -29; Sfp inh: -17%; TRPML1 blocker: x; ClpP mod: x; Menin MLL FP FL: 2.7; TRPML1 ag: x; PINK1 modulator: x
# `Cc1cc(C)cc(OCC(=O)OCC(=O)NCCC2=CCCCC2)c1` reads TRPV1 PAM: 2; Sfp inh: 7%; TRPML1 blocker: 0; ClpP mod: -1.2%; Menin MLL FP FL: 1.9; TRPML1 ag: 4.1; PINK1 modulator: 0.5%

# Values by screen from above.
# Entries 21–28 in PINK1 modulator read x, 0.5%, 1.9%, 1.7%, -4.8%, 10%[38.3 µM], 10%, 5.5%
# Entries 21–28 in TRPV1 PAM read -2, 2, -8, -5, 1, 12, -1, 13
# Entries 21–28 in Menin MLL FP FL read 7.7, 1.9, 2.2, 1.9, x, 4.8, 4.4, -1.0

# Next section
31	Nc1nc(SCc2ccc3c(c2)OCCO3)n[nH]1
32	COc1cc2cc(C)c(SCC(=O)N3CCOCC3)nc2cc1OC
33	CC(C)Oc1cc(NC(=O)CS(=O)CC(=O)Nc2cccc(C(F)(F)F)c2)c(Cl)cc1Cl (configuration not stated)
34	CCOC(=O)c1sc2ccc(S(=O)(=O)N3CCOCC3)cc2c1N
35	CC(C)N1CCC(N2CCN(CC#Cc3ccccc3)CC2CCO)CC1 (configuration not stated)
36	c1ccc(Nc2nc(-c3ccoc3)nc3ccccc23)cc1
37	O=C(OC1CCOC1=O)c1cc(-c2ccc(Br)cc2)nc2ccccc12 (configuration not stated)
38	CCCc1cc(=O)[nH]c(SCc2cc(Cl)ccc2OC(F)F)n1
39	NS(=O)(=O)c1ccc(NC(=O)/C=C/c2ccc3c(c2)OCO3)cc1
40	O=C(NNC(=S)NC(=O)c1cccc([N+](=O)[O-])c1)c1ccc(Br)cc1
entry no. | 31 | 32 | 33 | 34 | 35 | 36 | 37 | 38 | 39 | 40
TRPV1 PAM | 19 | 13 | 8 | -10 | 0 | x | 7 | -9 | -9 | -2
Sfp inh | 0% | -3% | 19% | 1% | -6% | -18% | 7% | -1% | 1% | -2%
TRPML1 blocker | 11 | -14 | -16 | 9 | 0 | x | -2 | -9 | -11 | -2
ClpP mod | -0.2% | -13% | 1.6% | -7.5% | x | x | u | 1.1% | x | x
Menin MLL FP FL | 1.8 | -0.3 | 1.3 | 2.9 | -5.9 | 17 | 5.9 | 2.5 | -1.7 | -0.3
TRPML1 ag | 0.1 | 1.5 | 1.5 | 0.3 | 0.6 | x | 1.7 | 2.8 | -0.6 | u
PINK1 modulator | 0.9% | -0.5%[38.3 µM] | 3.6%[38.3 µM] | 11%[38.3 µM] | -1.8% | 2.8% | -4.0%[38.3 µM] | u | 12% | 1.3%

# The list goes on, overlapping the part above by 3 compounds.
38	CCCc1cc(=O)[nH]c(SCc2cc(Cl)ccc2OC(F)F)n1
39	NS(=O)(=O)c1ccc(NC(=O)/C=C/c2ccc3c(c2)OCO3)cc1
40	O=C(NNC(=S)NC(=O)c1cccc([N+](=O)[O-])c1)c1ccc(Br)cc1
41	Cc1ccc(OCCn2c(CNc3cccc(C)c3)nc3ccccc32)cc1
42	O=C(/C=C/c1ccc(Cl)cc1)N1CCN(c2ncccn2)CC1
43	CC(CN1CCOCC1)OC(=O)C(c1ccccc1)c1ccccc1 (configuration not stated)
44	O=C(CSc1nncs1)Nc1nnc(-c2ccccc2)o1
45	COc1cccc(/C=C/C(=O)Nc2ccc(C(=O)Nc3cccc(S(N)(=O)=O)c3)cc2)c1OC
46	CCOc1ccccc1NC(=O)N1CCCC1C(=O)NCc1ccco1 (configuration not stated)
entry no. | 38 | 39 | 40 | 41 | 42 | 43 | 44 | 45 | 46
TRPV1 PAM | -9 | -9 | -2 | x | -7 | 17 | 19 | 16 | -9
Sfp inh | -1% | 1% | -2% | x | 10% | -8% | u | 5% | 4%
TRPML1 blocker | -9 | -11 | -2 | 8 | x | 4 | 4 | 12 | 2
ClpP mod | 1.1% | x | x | -5.0% | x | -1.1% | -2.4% | x | x
Menin MLL FP FL | 2.5 | -1.7 | -0.3 | x | 1.8 | 2.8 | x | 2.2 | -5.4
TRPML1 ag | 2.8 | -0.6 | u | 1.6 | x | 0.1 | 0.2 | 0.1 | 0.3
PINK1 modulator | u | 12% | 1.3% | 1.9% | x | -0.5% | -0.3% | 4.4% | 2.1%
